AmpC inh no det = AmpC beta-lactamase inhibition, detergent-free assay; P00811; AmpC nitrocefin hydrolysis, absorbance 480 nm, no detergent; potencies from a single point are estimates; Potency, µM (top dose mostly 28.7 µM), without a hit: top-dose activity change, negative = inhibition; hit rate 1.8% among 71,000; AID 585; active = falling curve, for most hits resting on a single point; inconclusive = weak or doubtful change; inactive = flat or rising curve; also: % of control where 0% means no effect; about half of the hits show no inhibition at the top dose; a quarter of the inactives give rising signals
Target sequence (P00811 whole entry, looked up): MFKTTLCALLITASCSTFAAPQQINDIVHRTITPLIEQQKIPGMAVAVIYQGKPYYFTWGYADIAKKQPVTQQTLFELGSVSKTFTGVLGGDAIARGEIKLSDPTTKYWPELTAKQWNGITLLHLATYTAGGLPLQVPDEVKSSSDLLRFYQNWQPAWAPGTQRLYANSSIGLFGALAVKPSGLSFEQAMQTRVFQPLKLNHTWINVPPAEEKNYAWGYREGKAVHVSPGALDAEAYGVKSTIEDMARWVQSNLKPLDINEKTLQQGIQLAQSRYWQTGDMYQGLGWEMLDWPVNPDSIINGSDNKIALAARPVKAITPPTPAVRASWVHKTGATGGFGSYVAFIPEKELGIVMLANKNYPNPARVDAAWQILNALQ
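AmpC, 20 mM phosphate pH 7.0; 15 min cpd preinc, RT; start with nitrocefin (800 uM stock); A480 kinetic read, 20 s intervals, 4 min. No-enzyme wells = negative control.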
Numbers without * were called inactive; [ ] = another dose, or the depositor's remark. Potency is read from the fitted curve at half-maximal effect.

entry	SMILES	AmpC inh no det
1	CC(C)Oc1cccnc1N(C)C1CCN(Cc2ccccc2)CC1	35%
2	COc1ccccc1NC(=O)C1=C(C)Nc2nnnn2C1c1ccncc1 (stereo not drawn)	0%
3	CCCC(=O)n1nc(-c2ccc(Cl)cc2)nc1SC	-7%
4	CCN(CCCNS(=O)(=O)c1ccc2c(c1)CCN2C(C)=O)c1cccc(C)c1	85%
5	C[C@@H](CCCCC(=O)Nc1ccc(C(F)(F)F)cc1)NCCc1cnc[nH]1	0%
6	O=C(c1ccccc1F)N1CCC(O)(c2cccnc2)CC1	-11%
7	COC(=O)[C@H]1C[C@@H]1[C@H](N)c1ccccc1	-6%
8	Cn1c(=O)c(-c2ccccc2)nc2cnc(N3CCOCC3)nc21	5%
9	CN(CCCNC(=O)COc1cc(=O)n(C)c2ccccc12)Cc1ccccc1	25%
10	CCOC(=O)N1CCN(C(=O)CSc2nnc(CNC(=O)c3ccccc3F)o2)CC1	-5%
11	O=C(Nc1cccc(F)c1)N1CC=C(n2c(=O)[nH]c3ccccc32)CC1	13%
12	Cc1cc2c(=O)n(Cc3ccco3)c(SCC(=O)N3CCCc4ccccc43)nc2s1	-7%
13	CCCCC1CCC(C(=O)NC2CCS(=O)(=O)C2)CC1 (stereo not drawn)	14%
14	COc1ccc2nc(SCC(N)=O)cc(C)c2c1	-6%
15	O=S(=O)(O)CCCc1cccc2ccccc12	6%[5.75 µM]
16	Cc1nnc(NC(=O)CSc2nnnn2Cc2ccccc2)s1	-8%
17	CCOc1ccc(N=NS(=O)(=O)O)cc1	5%[5.75 µM]
18	Cc1n[nH]c(C)c1S(=O)(=O)N(CC(=O)NC1CCCC1)c1ccc(C(C)C)cc1	70%
19	CCc1nnc(NC(=O)CN2CCN(c3ccccc3OC)CC2)s1	8%
20	CC(C)OC(=O)CC(=O)CSc1nc2c(cc1C#N)CCC2	18%
21	O=C(Cn1c(=O)oc2cc(S(=O)(=O)N3CCCCCC3)ccc21)NC1CCCCC1	4µM*[single pt active]
22	O=C(O)CCCC(=O)Nc1ccc(C(=O)N2CCCCC2)c(Cl)c1	-6%
23	Cc1cccc(C(=O)c2ccccc2C(=O)O)c1O	-6%
24	C=CCc1cccc(CNc2nc3ccccc3n2CCN2CCOCC2)c1O	-10%
25	COc1ccc2c(CC(=O)N(C)CC3COc4ccccc4O3)coc2c1 (stereo not drawn)	46%
26	O=C(O)c1cc(-c2ccncc2)nc2ccc(S(=O)(=O)N3CCOCC3)cc12	-10%
27	Cn1c(SCc2cccc(F)c2)nnc1-c1ccccn1	14%
28	CCOc1ccc(NC(=O)CC2NCCNC2=O)cc1 (stereo not drawn)	0%
29	CC(=O)Nc1ccn(Cc2c(F)cccc2Cl)n1	-7%
30	c1ccc2c3c(cc(N4CCOCC4)c2c1)OC1(N2CCOCC2)CCCCC1O3 (stereo not drawn)	66%
31	CCOC(=O)c1ccc(N2C(=O)CC(N3CCOCC3)C2=O)cc1 (stereo not drawn)	8%
32	C=CCn1sc(=N)c(C#N)c1N	-5%
33	Cc1sc2ncnc(Sc3nnnn3-c3ccccc3)c2c1C	7%
34	CCn1nnc(NC(=O)c2cc(Cl)c(OC)c(Cl)c2)n1	-6%
35	CC1CCCCC1NC(=O)Cn1cnc2ccccc2c1=O (stereo not drawn)	4%
36	Cc1ccc(S(=O)(=O)CCSc2nc(C)cc(C)c2C#N)cc1	6%
37	CCC(C)(C)n1nnnc1C(c1cc2cc(C)ccc2[nH]c1=O)N1CCCC1 (stereo not drawn)	46%
38	COc1cccc(CSc2nnc(-c3ccco3)n2C)c1	-1%
39	Cc1cc(N2CCN(C)CC2)n2nc(-c3ccc(Cl)cc3)nc2n1	20%[5.75 µM]
40	CCOC(=O)C1=C(C)NC(=O)NC1c1ccc(F)cc1 (stereo not drawn)	-4%
41	Cc1c[n+]([O-])n(-c2ccc(C(=O)O)cc2)n1	-6%
42	CC(=O)c1ccc(NC(=O)c2ccc(S(=O)(=O)N3CCCC3)cc2)cc1	18%
43	OC12CCCCC1C(c1ccccc1)NCC2 (stereo not drawn)	1%
44	CN1CCC2=C[C@H](O)[C@@H]3OC(=O)c4cc5c(cc4[C@H]3[C@H]21)OCO5	5%[12.8 µM]
45	CCOC(=O)N1CCN(c2c(-c3ccccc3)c3cc(Cl)ccc3[nH]c2=O)CC1	108%
46	COc1ccc2ccccc2c1/C=C\C(=O)c1ccccc1	7%[5.75 µM]
47	CC1CCN(C(=O)Cn2c(=O)oc3ccccc32)CC1	-5%
48	Cc1ccc(-c2ccc(CCC(=O)O)n2Cc2ccco2)cc1	11%

The last four compounds of the part above are carried over, then new ones follow.
entry	SMILES	AmpC inh no det
45	CCOC(=O)N1CCN(c2c(-c3ccccc3)c3cc(Cl)ccc3[nH]c2=O)CC1	108%
46	COc1ccc2ccccc2c1/C=C\C(=O)c1ccccc1	7%[5.75 µM]
47	CC1CCN(C(=O)Cn2c(=O)oc3ccccc32)CC1	-5%
48	Cc1ccc(-c2ccc(CCC(=O)O)n2Cc2ccco2)cc1	11%
49	CCC/C=C(\CCC)C(NC(=O)c1ccc(C(F)(F)F)cc1)c1ccccc1 (stereo not drawn)	20µM*[single pt active]
50	Cc1ccc(-n2c(N)c(C(=O)N3CCN(C)CC3)sc2=S)cc1	37%
51	COc1ccc(N2CCN(CCNC(=O)c3nnc(Cc4c(F)cccc4Cl)o3)CC2)cc1	115%
52	COc1ccc(CCC(=O)Nc2ccc(Br)cn2)cc1	-16%
53	CN1CCC(O)(c2ccccc2)C(C(=O)c2ccccc2)C1 (stereo not drawn)	10%
54	CN(Cc1nc(-c2ccncc2)no1)S(=O)(=O)c1ccc(Cl)cc1	11%
55	CCC(=O)N1CC(=O)Nc2ccc(Cl)cc2C1c1ccc(F)cc1 (stereo not drawn)	11%
56	O=C(O)c1ccc(CNc2ccccc2C(=O)O)cc1	-4%

Structural class: the compounds so far with a furan ring, fused or not (4)
entry	SMILES	AmpC inh no det
12	Cc1cc2c(=O)n(Cc3ccco3)c(SCC(=O)N3CCCc4ccccc43)nc2s1	-7%
25	COc1ccc2c(CC(=O)N(C)CC3COc4ccccc4O3)coc2c1 (stereo not drawn)	46%
38	COc1cccc(CSc2nnc(-c3ccco3)n2C)c1	-1%
48	Cc1ccc(-c2ccc(CCC(=O)O)n2Cc2ccco2)cc1	11%

Remaining list, next part:
entry	SMILES	AmpC inh no det
57	O=C(NCc1nc2ccccc2[nH]1)c1ccc(S(=O)(=O)N2CCOCC2)cc1	9%
58	N=C(N)SCc1nc(-c2ccc(Cl)cc2)no1	0%[5.75 µM]
59	Cc1cc(C)n(C(=O)COc2c(C)cccc2C)n1	-1%
60	COC(=O)c1nc(NC(=O)C(C)(C)C)n[nH]1	4%
61	CSCCC1NC(=O)NC1=O (stereo not drawn)	1%
62	Cc1ccc(-c2noc(-c3ccccc3Br)n2)cc1	-17%
63	N#Cc1nc(-c2ccc(OCc3ccc(Cl)cc3)cc2)oc1NCc1cccnc1	6%
64	C[C@H]1C[C@@H]2[C@@H]([C@@H](O)C[C@@]3(C)[C@H]2CC[C@]3(O)C(=O)CO)[C@@]2(C)C=CC(=O)C=C12	17%[12.8 µM]
65	CCCC(=O)Nc1nnc(CC(=O)OCC)s1	-8%
66	O=C(CCN1CCN(CC(=O)Nc2ccccc2Cl)CC1)Nc1ccccc1F	108%
67	CN(Cc1cc2ccccc2[nH]c1=O)S(=O)(=O)c1ccccc1	6%
68	CCOC(=O)c1[nH]c(C)c(C(=O)Nc2ccc3c(c2)CCC3)c1C	18%
69	O=C(COc1ccc(Cl)cc1)NCc1nnc(SCC(=O)Nc2ccccc2)o1	30%
70	O=C(C1CCCCC1)N1CCN(c2ncccn2)CC1	1%
71	Cc1cc2ccccc2n2c(SCC(=O)N3CCN(C(=O)c4ccco4)CC3)nnc12	-3%
72	CCOC(=O)C1CCN(C(=O)Cn2cc(C(=O)C3CC3)c3ccccc32)CC1	19%
73	C=CCn1c(NCc2ccccc2)nc2ccccc21	9%
74	Cc1cc(OCC(=O)O)c(Cl)cc1Cl	10%[5.75 µM]
75	Cc1noc(C)c1CN1C(=O)NC2(CCCCCCC2)C1=O	5%
76	O=C(Cn1cc(C(=O)c2cccs2)c2ccccc21)NCC1CCCO1 (stereo not drawn)	11%
77	COc1ccc(C2c3c(oc4ccc(Cl)cc4c3=O)C(=O)N2Cc2ccco2)cc1OC (stereo not drawn)	36%
78	Cc1c(NC(=O)C23CC4CC(CC(C)(C4)C2)C3)c(=O)n(-c2ccccc2)n1C	5%
79	CCOC(=O)c1ccc(NS(=O)(=O)c2ccc3c(c2)oc(=O)n3C)cc1	-5%
80	Cc1noc(C)c1COc1cccc(C(=O)N2CCN(C/C=C/c3ccccc3)CC2)c1	126%

Reprinted from the listing, 4 compounds:
entry	SMILES	AmpC inh no det
77	COc1ccc(C2c3c(oc4ccc(Cl)cc4c3=O)C(=O)N2Cc2ccco2)cc1OC (stereo not drawn)	36%
78	Cc1c(NC(=O)C23CC4CC(CC(C)(C4)C2)C3)c(=O)n(-c2ccccc2)n1C	5%
79	CCOC(=O)c1ccc(NS(=O)(=O)c2ccc3c(c2)oc(=O)n3C)cc1	-5%
80	Cc1noc(C)c1COc1cccc(C(=O)N2CCN(C/C=C/c3ccccc3)CC2)c1	126%

Carrying on.
entry	SMILES	AmpC inh no det
81	COc1cc(NC(=O)CC(C)C)ccc1NC(=O)c1ccco1	-11%
82	O=C(COc1ccc(F)cc1)Nc1ccc(-n2cnnn2)cc1	-5%
83	Nc1cccc(C(=O)Nc2ccccc2Cl)c1	-6%
84	CCN(CC)CCNC(=O)Cc1c(C(=O)O)n(C)c2ccccc12	10%
85	O=C(NCCCN1CCCC1=O)C1CCN(S(=O)(=O)N2CCOCC2)CC1	0%
86	Cc1ccc2c(c1)N(CC(=O)NCc1cccs1)C(=O)CO2	4%
87	CCOC(=O)c1ccc(N=Cc2nc3ccccc3n2C)cc1	-9%
88	Cc1ccc(-c2noc(CSc3nnnn3C3CCCCC3)n2)cc1	-4%
89	CN(C)C(=O)Nc1ccc(Cl)cc1	5%
90	O=C(CCCSc1nc2ccccc2[nH]1)NCc1ccco1	-8%
91	CSc1ccc(C2C(C#N)=C(N)Oc3c2ccc(=O)c2c(C)oc(C)c32)cc1 (stereo not drawn)	10µM*
92	Cc1cc(C)cc(NC(=O)C2CCCC2)c1	-19%
93	COC(=O)c1cn(NC(=O)C2CCCO2)c(=O)c2ccccc12 (stereo not drawn)	0%
94	Clc1cc(Cl)c(Cl)c(Cl)c1	-3%
95	Cc1ccc(N(CC(=O)NCc2ccco2)C(=O)CCC(=O)Nc2ccccn2)cc1C	48%
96	COc1ccc(-c2cc3ccc(OCc4nn[nH]n4)cc3oc2=O)cc1OC	-6%
97	CCOC(=O)N1CCC(NC(=O)C2CCN(S(=O)(=O)c3cccs3)CC2)CC1	30%
98	O=C1CCc2cc(S(=O)(=O)N3CCN(c4cccc(C(F)(F)F)c4)CC3)ccc2N1	12%
99	CN(c1cccc(NC(=O)CCSc2ccccc2)c1)S(C)(=O)=O	-3%
100	CCCC/C=C/C(NC(=O)OCc1ccccc1Cl)c1ccccc1 (stereo not drawn)	-14%
101	CCOc1ccccc1OCC(=O)Nc1nnc(C)s1	-2%
102	COc1ccccc1OCC(=O)Sc1ccc(C)cc1	-1%
103	O=P1(NCc2ccco2)COc2ccccc2OC1	6%
104	Cn1c(=O)c2cc(S(=O)(=O)NC(C(=O)Nc3cccnc3)c3ccccc3)ccc2n(C)c1=O (stereo not drawn)	4µM*[single pt active]
105	CC(=O)N(C)c1ccc(OCC(O)COc2ccc(N(C)C(C)=O)cc2)cc1	18%
106	Cc1ccccc1CS(=O)(=O)Cc1ccc(C(=O)NCc2ccco2)o1	2%
107	OC(C#CCN1CCOCC1)(c1ccccc1)C1CC1 (stereo not drawn)	23%
108	CC(CN1CCOCC1)(NS(=O)(=O)c1ccccc1)c1ccccc1 (stereo not drawn)	8%
109	[N-]=[N+]=[N-]	-7%
110	O=C(O)CCCNS(=O)(=O)c1ccc(F)cc1	-8%
111	CCOc1ccc(C(=O)Nc2cccc(-c3nc4cccnc4o3)c2)cc1Cl	76%
112	O=C(CSc1ccccc1)NCc1cccnc1	-10%
113	COc1ccc(C2C(C(=O)N3CCN(c4ccccc4)CC3)c3ccccc3C(=O)N2C)cc1 (stereo not drawn)	96%
114	CSc1nnc(-c2ccc(NC(=O)CCc3ccccc3)cc2)n1C	11%
115	N#Cc1c2n(c3c(-c4ccccc4)ncnc13)CCC2	3%
116	COc1ccccc1Oc1coc2c(CN3CCN(C)CC3)c(O)ccc2c1=O	4%
117	O=C(CSc1nc2ccccc2o1)N1CCCC1	6%
118	O=C(CN1CCN(c2nc(-c3ccc(F)cc3)cs2)CC1)NCc1ccc2c(c1)OCO2	81%
119	COC(=O)C(C)Sc1nc2c(c(=O)n(C)c(=O)n2C)n1Cc1cccc(C)c1 (stereo not drawn)	134%
120	CC1CC(c2ccccc2)n2nc(N3C(=O)c4ccccc4C3=O)nc2N1 (stereo not drawn)	-1%
121	COc1ccc(NC(=O)N2CCC3(CC2)CCN(C(=O)c2cccn2C)CC3)cc1	5%
122	O=c1c2ccccc2nnn1CSc1nc2ccccc2c(=O)n1Cc1ccco1	6%
123	Cc1[nH]nc2c1C(c1ccc(-c3ccccc3C#N)o1)C(C#N)=C(N)O2 (stereo not drawn)	-6%
124	CC(C)(C)[C@@]1(O)C[C@@H]2OC(=O)C[C@@]23C(=O)O[C@H]2OC(=O)[C@@H](O)[C@]231	13%
125	CCOc1ccc(N2CC(C(=O)Nc3ncccc3C)CC2=O)cc1 (stereo not drawn)	9%

Not all compounds are listed; rates above refer to the full screens.
